# Bioassay records deposited in PubChem by National Center for Advancing Translational Sciences (NCATS).
# GLA inh pH 4.5 = alpha-galactosidase A (human) inhibition, pH 4.5; purified enzyme, 4-MU-alpha-Gal fluorescence, pH 4.5; 230,000 tested, under 10 active; activity change, negative = inhibition, % at 105 µM; P06280; inconclusive = small, poorly fitted or top-dose-only inhibition, or a rising curve; inactive = flat fitted curve, though single readings scatter; no compound was filed as active;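 further: 0% = full activity with enzyme and -100% = basal without enzyme; dose as in the result columns while the protocol names 77 µM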
# Target sequence (P06280 whole entry, looked up): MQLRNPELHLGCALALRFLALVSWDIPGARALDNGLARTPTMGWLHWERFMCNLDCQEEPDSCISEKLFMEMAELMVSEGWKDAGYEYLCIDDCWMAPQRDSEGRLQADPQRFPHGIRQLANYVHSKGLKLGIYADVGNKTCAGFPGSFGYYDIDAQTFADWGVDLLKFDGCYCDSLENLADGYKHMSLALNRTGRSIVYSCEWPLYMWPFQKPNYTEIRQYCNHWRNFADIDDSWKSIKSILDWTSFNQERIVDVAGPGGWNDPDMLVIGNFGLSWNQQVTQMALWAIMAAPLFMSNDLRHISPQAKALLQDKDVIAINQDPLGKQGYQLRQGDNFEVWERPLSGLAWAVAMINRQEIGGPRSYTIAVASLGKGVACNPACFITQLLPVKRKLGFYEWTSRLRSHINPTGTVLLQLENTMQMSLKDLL
# Starred values were filed as active, the others as inactive; & = joins results of further samples. These rows are one share of the data; the hit share may differ from the screen's.
entry	GLA inh pH 4.5	molecule
1	4	CC#CCN1c2ccccc2[C@]23C[C@@H](C(=O)OC)N(S(=O)(=O)c4ccc(C(F)(F)F)cc4)C2=NC(C(=O)OC)=C(C(=O)OC)[C@H]13
2	3	COc1ccc2c(c1)[C@]1(C)CCC(=O)C[C@H]1CC2
3	-6	COC(=O)N1[C@H](C)C=C[C@]1(Cc1ccccc1)C(=O)NCc1ccc(N(C)C)cc1
4	-2	CO[C@@H](CCOCc1ccccc1)C[C@H]1O[C@H](C(=O)OC(C)C)C=C[C@@H]1C
5	5	COc1ccccc1-c1coc2cc(O)ccc2c1=O
6	-16	COc1cccc(CCc2ccccc2OCC[C@@H]2C[C@@H](O)CN2C)c1
7	-2	Clc1nccc2c1ccc1ccccc12
8	-2	Cc1ccc(C(=O)Cn2c3c(sc2=N)CCCC3)cc1
9	-10	COC(=O)CCCC1=CC2=CC(=O)C(C)(OC(=O)c3cnc4ccccc4n3)C(=O)C2=CO1 (stereo not drawn)
10	-2	CC(C)[C@H]1CC[C@@H](C)C[C@H]1O
11	-1	COc1ccc(C2Sc3ccccc3N(CCN(C)C)C(=O)C2OC(C)=O)cc1 (stereo not drawn)
12	-4	CCNC(=O)[C@H]1O[C@@H](n2cnc3c(N)nc(NCCc4ccc(CCC(=O)O)cc4)nc32)[C@H](O)[C@H]1O

# 5 compounds already listed, arranged by their value in GLA inh pH 4.5, highest first.
nr | molecule | GLA inh pH 4.5
5 | COc1ccccc1-c1coc2cc(O)ccc2c1=O | 5
1 | CC#CCN1c2ccccc2[C@]23C[C@@H](C(=O)OC)N(S(=O)(=O)c4ccc(C(F)(F)F)cc4)C2=NC(C(=O)OC)=C(C(=O)OC)[C@H]13 | 4
4 | CO[C@@H](CCOCc1ccccc1)C[C@H]1O[C@H](C(=O)OC(C)C)C=C[C@@H]1C | -2
12 | CCNC(=O)[C@H]1O[C@@H](n2cnc3c(N)nc(NCCc4ccc(CCC(=O)O)cc4)nc32)[C@H](O)[C@H]1O | -4
6 | COc1cccc(CCc2ccccc2OCC[C@@H]2C[C@@H](O)CN2C)c1 | -16

# Two entries from above, field by field:
11: COc1ccc(C2Sc3ccccc3N(CCN(C)C)C(=O)C2OC(C)=O)cc1 (stereo not drawn)
  GLA inh pH 4.5: -1
12: CCNC(=O)[C@H]1O[C@@H](n2cnc3c(N)nc(NCCc4ccc(CCC(=O)O)cc4)nc32)[C@H](O)[C@H]1O
  GLA inh pH 4.5: -4

# Following part
entry	GLA inh pH 4.5	molecule
13	-6	COC(=O)[C@@]1(Cc2ccc(OC)cc2)[C@H]2c3cc(C(=O)N4CCCC4)n(CCc4ccccn4)c3C[C@H]2CN1C(=O)c1ccccc1
14	-2	CC(=O)OC1CC(OC(C)=O)[C@]2(C)C(CC(OC(C)=O)[C@]3(C)C2CC[C@@]2(C)C(c4ccoc4)OC(=O)C4O[C@]432)C1(C)C (stereo partly drawn)
15	-3	COc1ccc2c(c1)O[C@@H](c1ccc3c(c1)OCO3)[C@H](OC(=O)NC1CCCC1)C2=O
16	-8	CCOC(=O)C1=C(N)Oc2ccc(Br)cc2[C@@H]1[C@@H](C#N)C(=O)OCC
17	1	CCCCCN(CCCCC)C(=O)[C@H](CCC(=O)O)NC(=O)c1ccc(Cl)c(Cl)c1
18	-13&0&6	NC(=O)c1cccc(N)c1
19	-9	CC1=CC(=O)C2=C(C)C[C@H](OC(=O)Cc3ccccc3)C3[C@H](OC(=O)[C@H]3C)C12 (stereo partly drawn)
20	-11	COc1ccc2c(=O)cc(-c3ccc(O)cc3)oc2c1
21	-1	CC(=O)OC1CC[C@]2(C)C(=CCC3C4CCC(C(C)CCCC(C)C)[C@]4(C)CCC32)C1 (stereo partly drawn)
22	-4	COC(=O)c1ccc(C(NC(=O)OCc2ccccc2)/C(=C/[C@@H](C)C(=O)NCc2ccc(C)o2)c2cccnc2)cc1 (stereo partly drawn)
23	-9	C[Si](C)(C)C#Cc1ccccc1NC(=S)Nc1ccccc1
24	-3	COc1cc2c3cc1Oc1c(OC)c(OC)cc4c1[C@@H](Cc1ccc(O)c(c1)Oc1ccc(cc1)C[C@@H]3N(C)CC2)N(C)CC4

# Gathered by group: the entries above containing four or more nitrogen atoms
entry	GLA inh pH 4.5	molecule
12	-4	CCNC(=O)[C@H]1O[C@@H](n2cnc3c(N)nc(NCCc4ccc(CCC(=O)O)cc4)nc32)[C@H](O)[C@H]1O
13	-6	COC(=O)[C@@]1(Cc2ccc(OC)cc2)[C@H]2c3cc(C(=O)N4CCCC4)n(CCc4ccccn4)c3C[C@H]2CN1C(=O)c1ccccc1

# (more compounds)
entry	GLA inh pH 4.5	molecule
25	-12	COCCNC(=O)[C@@]1(Cc2ccccc2)C=C[C@@H](C)N1C(=O)OC
26	9	Cc1ccc(B(O)O)cc1
27	-3	CON
28	-7&-2	C#CCCCCCCCCCCCCCCCC(=O)O
29	2&-5	c1ccc2c(Cc3c[nH]c4ccccc34)c[nH]c2c1
30	1	COc1ccc(-n2[nH]c3c4c(ncc3c2=O)CCCCC4)cc1
31	0&10	Nc1nc(N)c2nc(CNc3ccc(C(=O)NC(CCC(=O)O)C(=O)O)cc3)cnc2n1 (stereo not drawn)
32	0	CC(N)=NCCCC(N)C(=O)O (stereo not drawn)
33	4	O=C(O[C@@H]1Cc2c(O)cc(O)cc2OC1c1ccc(O)c(O)c1)c1cc(O)c(O)c(O)c1 (stereo partly drawn)
34	-3	O=CC(O)C(O)C(O)C(O)CO (stereo not drawn)
35	-6	COc1ccc(C2/C=C\C(c3ccc(OC)cc3)N(Cc3ccc(F)cc3)C(=O)C(=O)N2Cc2ccc(F)cc2)cc1 (stereo not drawn)
36	-24	Cc1c(-c2ccc(O)cc2)nn(-c2ccc(O)cc2)c1-c1ccc(OCCN2CCCCC2)cc1
37	4	COC(=O)c1ccc(C(NC(=O)OCc2ccccc2)/C(F)=C/[C@@H](C)C(=O)NCc2nc3ccccc3s2)cc1 (stereo partly drawn)
38	-6	COC(=O)c1nnc(N[C@@H](Cc2c[nH]c3ccccc23)C(=O)OC)nc1C(=O)OC
39	6	NC[C@@H]1O[C@H](O[C@H]2[C@H](O)[C@@H](O[C@H]3[C@H](O)[C@H](N)C[C@H](N)[C@H]3O[C@@H]3O[C@H](CO)[C@@H](O)[C@H](O)[C@@H]3N)O[C@H]2CO)[C@@H](N)[C@H](O)[C@@H]1O
40	-5	CCOC(=O)C12CC1/C(=N/O)c1ccccc1O2 (stereo not drawn)
41	1	CC(C)C1=CC2=CCC3[C@@](C)(CCC[C@@]3(C)C(=O)O)C2CC1 (stereo partly drawn)
42	-1	C=CCNC1=C2C[C@@H](C)C[C@H](OC)[C@H](O)[C@@H](C)/C=C(\C)[C@H](OC(N)=O)[C@@H](OC)/C=C/C=C(\C)C(=O)NC(=CC1=O)C2=O
43	-2	C=CCC(C)(O)c1ccsc1 (stereo not drawn)
44	5	COC(=O)C1=C(C(=O)OC)[C@@H]2N(C)c3ccccc3[C@@]23C[C@@H](C(=O)OC)N(S(=O)(=O)c2ccc(OC)cc2)C3=N1
45	0	CCOC(=O)CC(CC(C)=O)C(=O)OCC (stereo not drawn)
46	4	O=C(O)c1ccc2cc(-c3ccc(O)c(C45CC6CC(CC(C6)C4)C5)c3)ccc2c1
47	5	CCCCC[C@H](CC(=O)NO)C(=O)N[C@H](C(=O)N1CCC[C@H]1CO)C(C)C
48	0	CCCCC/C=C\C=C\C(O)CCCCCCCC(=O)O (stereo not drawn)

# Arranged by molecular weight (falling): 3 of the compounds above
entry	GLA inh pH 4.5	molecule
46	4	O=C(O)c1ccc2cc(-c3ccc(O)c(C45CC6CC(CC(C6)C4)C5)c3)ccc2c1
41	1	CC(C)C1=CC2=CCC3[C@@](C)(CCC[C@@]3(C)C(=O)O)C2CC1 (stereo partly drawn)
40	-5	CCOC(=O)C12CC1/C(=N/O)c1ccccc1O2 (stereo not drawn)

# (cont.)
entry	GLA inh pH 4.5	molecule
49	1	C=C(C)[C@H]1CC[C@]2(CO)CC[C@]3(C)[C@@H](CC[C@H]4[C@@]5(C)CC[C@@H](O)C(C)(C)[C@@H]5CC[C@@]43C)[C@H]12
50	5	O=C(c1ccccc1)[C@@H]1O[C@H]1c1ccc(-c2ccccc2)cc1
51	0	C[C@H](NC(=O)[C@@H]1C[C@H]1[C@@H](NC(=O)OCc1ccccc1)c1ccccc1)c1ccccc1
52	6	C=CC1=C2C=C(C3CC3)N(C3CCCCC3)C=C2C(=O)C(C)(OC(=O)c2ccco2)C1=O (stereo not drawn)
53	-4	CC1=C(C(=O)O)N2C(=O)[C@@H](NC(=O)C(N)C3=CCC=CC3)[C@H]2SC1 (stereo partly drawn)
54	2	COC1C=CC23c4cc5c(cc4CN(CC2O)C3C1)OCO5 (stereo not drawn)
55	-25	COc1cc2c(cc1OC)C1C(=O)c3ccc4c(c3OC1CO2)C=CC(C)(C)O4 (stereo not drawn)
56	-3	C=C[C@]1(C)Cc2occ(C)c2C[C@H]1C(=C)C(=O)O
57	0	CC(=O)OCC(=O)[C@@]1(O)CCC2C3CC[C@H]4CC(O)CC[C@@]4(C)C3C(=O)C[C@]21C (stereo partly drawn)
58	-8	COc1cccc(CS(=O)(=O)c2nnnn2CC(C)C)c1
59	-1	CC(=O)OCC(=O)[C@@]1(OC(C)=O)[C@H](C)C[C@H]2[C@@H]3C[C@H](F)C4=CC(=O)C=C[C@@]4(C)[C@]3(F)[C@H](O)C[C@@]21C
60	4	c1ccc2oc(C3=NCCN3)cc2c1
61	5	CCCCC[C@H](O)/C=C/[C@@H]1[C@H]2C/C(=C/CCCC(=O)O)O[C@H]2C[C@H]1O
62	4	COc1cc2c(cc1OC)[C@@H]1CC(=O)[C@@H](CC(C)C)CN1CC2
63	0	CN(Cc1ccc(C(C)(C)C)cc1)Cc1cccc2ccccc12
64	-8	CCCCCCCCCCCCCCCCCCOC[C@@H](O)COP(=O)([O-])OCC[N+](C)(C)C
65	5	Cc1onc(-c2ccccc2)c1C(=O)NC1C(=O)N2C(C(=O)O)C(C)(C)S[C@@H]12 (stereo partly drawn)
66	-8	CC[C@@H]1CN2CCc3cc(OC)c(OC)cc3[C@@H]2C[C@@H]1C[C@H]1NCCc2cc(OC)c(OC)cc21
67	-4	CN1[C@H](Cc2ccccc2)C=C[C@]1(C)C(=O)NCC1CC1
68	-4	Nc1nc2c(nc(Br)n2C2O[C@H]3COP(=O)(O)O[C@@H]3C2O)c(=O)[nH]1 (stereo partly drawn)
